LANA-H2B inh = blockers of LANA interaction with H2A/H2B – biochemical, FP readout, HTS, primary screen | inhibition, % (no concentration beside the values) | cell-free LANA-H2A/H2B peptide, fluorescence polarization | 320,000 tested, 0.6% active | Protein LANA1 (Human herpesvirus 8 type P (isolate GK18)), Q9QR71 | AID 2629, 2010; in the data active = inhibition mostly above about 10%, no sharp cut-off; inactive = mostly below about 6.7%;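 also: stock transfer was 7.5 nL into about 10 µL; 0% = median of vehicle wells and 100% = median of positive control wells; one replicate is shown; the record names a cut of 25% in any replicate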
Beta2AR agonist = beta2AR agonists driving receptor internalization, primary screen, cell-based, FAP fluorogen, flow cytometry; 340,000 tested, 0.43% active; Am2.2-beta2AR cells; reference of the scale not given here; response, % (no concentration beside the values);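 active = response above a set limit, near 3 SD of response in nonfluorescent compounds, cut at about 42% in these data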;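 also: stock transfer was 100 nL into about 11 µL; a reference agonist was the positive control; negative values mostly stem from fluorescent compounds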
Target sequence (P07550 whole entry, looked up): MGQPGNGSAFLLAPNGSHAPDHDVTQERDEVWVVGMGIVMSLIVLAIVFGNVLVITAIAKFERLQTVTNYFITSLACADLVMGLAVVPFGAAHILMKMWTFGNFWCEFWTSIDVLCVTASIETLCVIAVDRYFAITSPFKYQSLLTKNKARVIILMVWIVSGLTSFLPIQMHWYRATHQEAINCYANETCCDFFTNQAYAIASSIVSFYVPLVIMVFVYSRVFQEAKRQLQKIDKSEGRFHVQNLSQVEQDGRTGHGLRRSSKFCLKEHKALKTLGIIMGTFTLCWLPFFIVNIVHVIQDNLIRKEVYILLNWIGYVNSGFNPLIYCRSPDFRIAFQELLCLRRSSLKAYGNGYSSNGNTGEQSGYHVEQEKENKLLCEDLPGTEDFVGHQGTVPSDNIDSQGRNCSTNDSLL
Bfl-1 A1 inh = caspase 3/7 activation in MEF A1-2A-BIM cells, primary screen, A1 inhibitor project, cell-based, luminescence, HTS; Caspase-Glo 3/7 luminescence, 3 h; percent of clofoctol response, vehicle zero; caspase activation, % (no concentration beside the values); 330,000 tested, 0.066% active;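 active = over half of replicate activation scores above 10%, or exactly half above 10 with the replicate mean above 10; inconclusive = replicate mean below 10 yet half the replicates above 10; inactive = over half of replicates below 10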;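 also: wells of about 30 µL received 50 nL stock; many hits fall short of the cut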
T cruzi inh = inhibitors of intracellular T. cruzi growth, primary screen, luminescence, NIH3T3 host cells | inhibition, % (no concentration beside the values) | AID 1885, 2009 | 300,000 tested, 1.4% active | T. cruzi beta-gal in NIH3T3, 90 h;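 active = mean inhibition across valid replicates above about 55%, limit read from the data; inconclusive = mean below that limit but half or more replicates reach it; inactive = mean below it, under half of replicates reach it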;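 also: signal also drops with host cell toxicity which is not excluded here; 0% = plate median of DMSO wells and 100% = zero luminescence signal; higher percent means less beta-gal luminescence so fewer parasites; stock transfer was 50 nL into about 50 µL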
rRNA inh HTS = reduced GFP signal of wild-type E. coli, primary screen, bacterial rRNA inhibitor project, GFP/RFP fluorescence, OD600, single point; E. coli WT GFP vs humanized-ribosome RFP mutants, 24 h; hits give low values; DMSO median 0, no signal -100; GFP signal change (wild-type ribosome), % (concentration not given with the values); 350,000 tested, 1.6% active; AID 720706, 2013;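 active = significant combined selectivity score with lowered wild-type GFP, culture density cut under 30%, mutant RFP and density less affected; inactive = any of these conditions unmet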; also: one replicate is shown; some compounds called inactive have numbers as strong as hits
ALR inh = inhibitors of human ALR sulfhydryl oxidase, primary screen, biochemical, H2O2 detection, HRP-luminol luminescence, single point; purified ALR, DTT oxidation; 290,000 tested, 3.8% active; inhibition, % (concentration not given with the values); FAD-linked sulfhydryl oxidase ALR (Homo sapiens), P55789;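 active = mean and each replicate at 75% or more; inconclusive = only one of the two met; inactive = neither met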;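 also: stock transfer was 7.5 nL into about 7.5 µL; 0% = neutral wells and 100% = wells with inactivated enzyme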
Target sequence (P55789 whole entry, looked up): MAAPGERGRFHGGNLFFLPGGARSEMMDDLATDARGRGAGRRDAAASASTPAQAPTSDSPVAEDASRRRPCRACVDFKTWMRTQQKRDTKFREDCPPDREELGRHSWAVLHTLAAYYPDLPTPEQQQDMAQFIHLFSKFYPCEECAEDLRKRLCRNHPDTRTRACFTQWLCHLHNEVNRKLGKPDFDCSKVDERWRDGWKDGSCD
Calb FLC = C. albicans growth inhibition with fluconazole, primary screen, CaCi-2 strain, Alamar Blue fluorescence; C. albicans CaCi-2 (fluconazole-resistant clinical isolate) + fluconazole, 48 h; growth inhibition, % (no concentration beside the values); 300,000 tested, 0.57% active;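 active = most replicates above 75%; inconclusive = exactly half above 75%; inactive = most below 75%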;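 also: all wells also contain fluconazole at 8 µg/ml as a sub-toxic cotreatment; 0% = median of DMSO wells and 100% = median of geldanamycin control wells; wells of about 8 µL received 7.5 nL stock; the first replicate is given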
Beta cell apopt = inhibitors of cytokine-induced beta cell apoptosis, primary screen, luminescence; INS-1E cytokine-induced death, ATP luminescence, 48 h; percent of positive-control rescue, neutral wells zero; protection from apoptosis, % (test concentration not listed); 300,000 tested, 0.8% active;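 active = all replicates at 75% or more, or half of them and the mean; inconclusive = half reach 75% but not the mean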;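 also: 0% = cytokine-treated negative control wells and 100% = positive control rescue; higher means more ATP so stronger rescue from cytokine killing; wells of about 40 µL received 100 nL stock; the first replicate is given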
rRNA inh HTS OD600 = second read-out of rRNA inh HTS, no call of its own (marks repeat the call); OD600 change, %; measured here: OD600 growth;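 optical density of the mix in the first replicate; 0 = DMSO median and -100 = no signal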
rRNA inh HTS RFP = second read-out of rRNA inh HTS, no call of its own (marks repeat the call); RFP signal change, %; measured here: RFP humanized mutant strains;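 first replicate; 0 = DMSO median and -100 = no signal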
Active calls of the source: *; ? = inconclusive; . = not tested or not shown.

SMILES	LANA-H2B inh	Beta2AR agonist	Bfl-1 A1 inh	T cruzi inh	rRNA inh HTS	rRNA inh HTS OD600	rRNA inh HTS RFP	ALR inh	Calb FLC	Beta cell apopt
Cc1ccccc1NC(=O)CCNS(=O)(=O)c1ccc2c(c1)CCC(=O)N2	1.0	-5.5	3.0	-16.1	1.4	8.1	2.6	-3.5	-6.7	-0.4
Cc1nc2ccc(NC(=O)c3nn(CC(C)C)c(=O)c4ccccc34)cc2s1	-0.7	-5.0	0.8	10.7	-14.0	-29.1	-9.4	-0.5	-4.2	-1.7
CCOCCn1ccc2c(OCC(=O)Nc3ccccc3F)cccc2c1=O	.	12.2	-0.2	2.3	-0.4	7.7	-1.3	.	4.0	-2.6
COc1ccc(N(C)C(=O)c2ccc(NC(=O)CCS(=O)(=O)c3cccs3)cc2)cc1	1.4	9.6	-0.3	-1.0	-0.8	-4.2	-0.5	-4.8	4.4	-3.5
O=C(CN(C(=O)CNC(=O)c1ccco1)c1ccc(F)cc1)NC1CCCCC1	1.2	6.1	-0.2	-3.7	.	.	.	-6.8	1.2	-8.1
CC1=Nc2ccccc2N=C(NC(=O)CSc2nnnn2-c2ccccc2)C1c1ccccc1 (stereo not drawn)	-9.6	-2.9	1.0	7.1	.	.	.	4.9	1.4	4.1
O=C(NCCCn1ccnc1)c1cn(Cc2ccc(F)cc2)nn1	3.3	13.1	-1.2	-20.2	.	.	.	18.2	-4.7	2.9
CS(=O)(=O)c1cccc(C(=O)Nc2nnc(C3=COCCO3)o2)c1	1.0	-3.0	0.8	-4.8	5.1	10.1	-1.1	99.1*	-3.0	1.8
O=C(C1=C[C@H](c2ccccc2)C[C@H](OCCCCO)O1)N1CCN(Cc2ccccc2)CC1	1.6	0.3	1.7	?	5.6	-2.5	0.8	.	-4.6	-2.2
O=C(COc1ncnc2ccccc12)c1ccc2c(c1)OCCO2	-5.5	2.0	-1.0	1.5	.	.	.	-2.6	-4.9	0.8
Cc1c(CC(C)C)nc(N)c(C#N)c1-c1ccccc1	6.1	-4.1	0.1	6.0	.	.	.	-5.1	?	-5.4
Cc1ccc(-n2[nH]c(C)c(C=Nc3ccc(C)cn3)c2=O)cc1	2.4	-9.2	-3.4	-21.1	2.0	-1.6	-5.4	-4.8	-9.4	-5.7
CN1CCN(c2ccc(NC(=O)c3ccc(Oc4ccccc4)cc3)cc2)CC1	0.4	17.8	-0.1	26.2	-8.0	-11.7	1.0	-18.6	3.8	2.8
Cn1cnnc1SCC(=O)n1c2ccccc2c2ccccc21	-0.3	-10.9	0.7	1.6	.	.	.	-2.5	4.8	-8.5
CC1(CCc2ccccc2)NC(=O)N(CC(=O)N2CC(=O)Nc3ccccc32)C1=O (stereo not drawn)	-1.4	1.1	0.8	6.1	2.2	-3.7	-3.4	-6.1	-1.5	-3.6
CCn1c(SCC(=O)c2cc(C)n(CC3CCCO3)c2C)nc2ccccc21 (stereo not drawn)	-5.6	-2.5	0.7	15.5	.	.	.	-1.7	-7.2	-0.2
NC(=O)CSc1nnc(COc2ccc3ccccc3c2)o1	2.9	4.0	-0.7	-1.0	4.2	7.3	-1.5	-3.4	-1.9	.
CNC(=O)CCn1nc(-c2ccc(C)cc2)c2ccccc2c1=O	0.7	-6.7	1.1	-9.4	3.5	-4.3	1.8	-2.3	-2.7	2.4
COc1ccc([N+](=O)[O-])cc1NC(=O)c1cccnc1	0.8	-5.0	2.0	-1.4	2.3	9.2	-0.3	1.1	10.7	-0.2
Cc1ccccc1NS(=O)(=O)c1ccc(N2CCCC2=O)cc1	-1.4	1.3	-0.2	-12.3	.	.	.	-3.7	-15.6	-15.8
C/C(=N/NS(=O)(=O)c1ccc(C(C)C)cc1)c1ccncc1	2.9	-10.9	0.8	-30.7	3.5	7.6	-1.5	13.6	35.1	1.3
CCOc1ccc(NC(=O)CC(NCc2ccccn2)C(=O)O)cc1 (stereo not drawn)	2.5	-4.8	-0.3	-2.0	15.5	15.1	-0.6	-9.5	-10.7	.
CN(Cc1nc2ccccc2n1C)S(C)(=O)=O	4.4	-4.7	0.2	-8.2	.	.	.	-6.1	-8.5	-2.4
O=C(c1ccc(Cl)cc1)C1CCN(C(=O)NC2CCCCC2)CC1	-1.8	-4.1	-0.7	-1.1	.	.	.	-5.2	21.7	5.7
CC(C)(C)NC(=O)COC(=O)c1ccc(S(=O)(=O)N2CCCCCC2)cc1	2.3	7.0	-0.1	-10.0	6.9	3.5	-3.0	6.5	-11.2	-7.4
CN(C)C(=S)NC(=O)C(c1ccccc1)c1ccccc1	-1.7	-6.0	1.0	4.7	7.7	2.3	4.1	-2.1	-12.6	0.5
c1csc(C2Nc3cccc4cccc(c34)N2)c1	-7.5	2.6	-0.1	6.4	.	.	.	0.5	-4.5	.
CCc1nn(CCCC(=O)N2CCC(C)CC2)c(=O)c2cc3occc3n12	0.3	-3.2	0.7	4.9	-9.3	-11.1	0.3	3.8	25.4	-1.9
COc1cccc2c1C(=O)CC1C2CCC2CC(=O)CCC21C (stereo not drawn)	-3.0	4.1	-0.1	-4.7	.	.	.	-4.4	-7.3	.
O=C(NCCOc1ccccc1)c1cccc(S(=O)(=O)NCc2ccccc2)c1	6.7	-6.7	?	3.8	-16.8	-33.4	-4.5	5.3	0.6	3.1
O=C(COC(=O)CNC(=O)c1ccc(Cl)c([N+](=O)[O-])c1)NCC1CCCO1 (stereo not drawn)	1.2	1.6	0.7	.	-7.8	4.4	-2.2	.	.	-3.3
COCn1c(C(O)c2ccccc2)cc2ccccc21 (stereo not drawn)	0.2	-5.5	0.9	-8.9	-4.9	-15.1	-4.9	1.0	3.6	.
Cn1cccc1C(=O)OCc1ccc(F)cc1	-0.7	6.9	-4.6	-11.7	2.9	2.9	-0.1	-1.6	0.0	.
CCN1CCN(c2ccc(NC(=O)c3ccc(Br)o3)cc2)CC1	.	-8.9	.	-0.8	-1.9	-4.4	-2.4	.	-2.2	.
CC(=O)c1c(C)[nH]c(C(=O)CSc2nc3ccccc3c(=O)n2CCCO)c1C	-4.2	2.0	-0.4	8.8	15.3	7.1	3.0	-36.0	-15.3	-2.7
COc1cc(CCC(=O)OCC(N)=O)cc(OC)c1OC	-7.2	0.6	0.0	-10.0	15.7	1.5	-7.9	-0.3	-9.5	-2.3
Cc1ccc2c(c1)CC1(CN2C)C(=O)OC2(CCCCC2)OC1=O	1.0	6.9	-0.3	4.8	.	.	.	46.8	-2.1	-2.9
C=CCNC(=O)Nc1ccc(F)c(Cl)c1	1.6	-2.0	-0.4	-5.7	5.4	3.0	0.6	-19.9	20.1	-6.4
O=C1/C(=N\S(=O)(=O)c2cccs2)C([n+]2cccc(Cc3ccccc3)c2)=C([O-])c2ccccc21	-7.5	5.6	-0.2	12.0	.	.	.	-5.5	9.0	101.1*
O=C1c2ccccc2-c2onc3ccc(NCc4ccco4)c1c23	110.9*	-153.3	-0.8	13.9	.	.	.	.	15.4	43.6
COc1cccc(CNS(=O)(=O)c2cc3c(cc2C)n(C)c(=O)c(=O)n3C)c1	.	-0.2	.	-7.5	0.4	3.7	-1.5	.	-10.0	.
CC(c1ccccc1)C(CC(=O)O)C(=O)NC1CCCCC1 (stereo not drawn)	1.9	-0.8	-0.3	-6.4	0.9	-6.9	-1.3	-1.2	-7.3	-2.9
Cn1c(CSc2nc3ccccc3s2)nnc1SCC(=O)NCCN1CCOCC1	-3.2	2.6	1.1	9.8	.	.	.	-3.0	-1.9	-5.4
CCNC(=S)N(CCc1c(C)[nH]c2ccc(OC)cc12)Cc1cccnc1	1.5	-6.3	0.7	-2.0	4.5	-1.1	3.7	-157.6	.	-2.8
Cc1ccc(NC(=S)Nc2ccc3cn[nH]c3c2)c(C)c1	0.4	12.3	-0.4	-11.7	-26.0*	-1.9*	-7.4*	16.4	32.7	-20.8
CCC(CC)C(=O)NC12CC3CC(CC(C3)C1)C2	0.7	1.1	0.6	-13.5	.	.	.	-14.6	3.5	0.1
COC(=O)C1C(=O)c2c([nH]c(C(=O)OCCOC(C)C)c2C)CC1C (stereo not drawn)	-2.7	.	0.1	3.6	.	.	.	-5.9	?	-7.2
O=C(O)c1cccc(Nc2nc(N3CCOCC3)nc(N3CCOCC3)n2)c1	0.6	0.4	0.4	-6.8	.	.	.	-1.4	2.0	-13.3
CS(=O)(=O)c1ccc2nc(NC(=O)Nc3cccc(Cl)c3)sc2c1	0.0	22.0	-0.3	2.1	-0.5	9.5	-0.4	-7.5	4.2	50.9
CC1CCC(NC(=O)COC(=O)c2ccc3ncsc3c2)CC1 (stereo not drawn)	-3.5	12.3	0.4	.	1.2	0.3	-0.6	-18.4	.	-2.5
Oc1csc(Cc2nc(-c3ccc(Br)cc3)cs2)n1	-0.4	1.9	-0.7	-6.0	3.8	-2.0	0.5	-13.4	5.8	-0.4
Cc1nc(NC(=O)CSc2ccc(-c3nc4ccccc4[nH]3)cn2)sc1C	0.6	-9.6	-5.4	6.8	.	.	.	98.7*	-13.8	4.5
CN(C)C(CNC(=O)c1ccc([N+](=O)[O-])cc1Cl)c1ccco1 (stereo not drawn)	-6.6	0.1	1.4	3.9	1.1	-0.1	-4.6	-18.1	-3.0	.
COc1ccc(N2CCN(C3CCCN(C(=O)c4cccc(C)n4)C3)CC2)cc1 (stereo not drawn)	-4.7	-1.9	-0.1	2.0	15.1	12.8	-0.3	57.6	1.4	2.6
O=C(COc1ccc(F)cc1)NNC(=O)Cn1ccc(C(F)(F)F)n1	3.1	-8.5	0.1	.	.	.	.	-10.0	.	-3.7
CC1(C)C(=O)N(c2ccccc2F)C(=O)c2ccccc21	-2.6	-1.7	1.5	-1.8	-3.4	-0.1	1.2	.	5.8	-1.4
CCCCN1C(=O)NC(c2cccc([N+](=O)[O-])c2)C(C(=O)OCC)=C1C (stereo not drawn)	1.5	-11.6	0.7	25.3	4.6	5.8	-0.6	-6.3	13.1	-0.8
O=C(CN1CCN(c2ccccc2)CC1)Nc1cccc(C(F)(F)F)c1	-3.0	5.5	-0.1	22.8	-2.2	0.8	0.0	5.2	9.2	-6.2

Whole records, quoted from the list. Screens in order: LANA-H2B inh | Beta2AR agonist | Bfl-1 A1 inh | T cruzi inh | rRNA inh HTS | rRNA inh HTS OD600 | rRNA inh HTS RFP | ALR inh | Calb FLC | Beta cell apopt
Record of Cc1nc(NC(=O)CSc2ccc(-c3nc4ccccc4[nH]3)cn2)sc1C → 0.6 | -9.6 | -5.4 | 6.8 | . | . | . | 98.7* | -13.8 | 4.5
Record of CCCCN1C(=O)NC(c2cccc([N+](=O)[O-])c2)C(C(=O)OCC)=C1C (stereo not drawn) → 1.5 | -11.6 | 0.7 | 25.3 | 4.6 | 5.8 | -0.6 | -6.3 | 13.1 | -0.8

Screening data from PubChem.

An excerpt, so the mix of outcomes need not match the whole.
